Bioassay records deposited in PubChem by PCMD.
Biofilm kill mix = mixtures killing C. albicans biofilm; C. albicans biofilm persisters + clotrimazole, fluorescence viability; primary screen in compound mixtures of four per well; inhibition, % at 7.6 µM; 0.02% of 120,000 active;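 active means inhibition above 30.3% in the primary screen of four-compound pools, then above 30% when the compound was retested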;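 further: compounds exposed to preformed 24 h biofilms for 48 h; the number belongs to the whole pool; some results filed as inactive read as strong as hits; inactives centre near 12; 0% = biofilm with clotrimazole alone and 100% = kill control; retested singly at about 60 µM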
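System: C. albicans CAF4-2 wild-type biofilms; Medium: RPMI/MOPS medium, pH 7.0; Reagent: Clotrimazole, 50 µg/mL; Times: biofilm formation 24 h, compound exposure 48 h, 37 °C; Detection: 2-h Alamar Blue fluorescence, 535/590 nm excitation/emission; Evaluation: percent inhibition of biofilm viability.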
Numbers without * were called inactive. This is a subset; rates above refer to the full screens.

SMILES	Biofilm kill mix
Cc1cc(=O)oc2cc(OCC(=O)N/N=C/c3cc([N+](=O)[O-])ccc3O)ccc12	15
Cc1ccc(C2=NC3(CCCCC3)N=C2SCC(=O)Nc2ccc3c(c2)OCCO3)cc1	1
O=C1CCCC2=C1C(c1ccc(O)cc1)c1c(ccc3ccccc13)N2 (stereo unspecified)	5
COc1ccc(NC(=O)c2ccc(Cc3ccc(C)cc3)o2)cc1	6
CCCC(=O)Nc1ccc(NC(=S)NC(=O)c2ccccc2[N+](=O)[O-])cc1	7
Cc1ccc2nsnc2c1NC(=O)COc1ccccc1	14
CC1CC1c1ccc(/C=C(\C#N)C(=O)Nc2ccc(Cl)cc2)o1 (stereo unspecified)	11
Cc1ccc(-n2c(SCC(=O)N3CCCc4ccccc43)nnc2-c2cccnc2)c(C)c1	14
COc1cc(OC)nc(/N=C/N(C)C)n1	-1
Cc1[nH]c2ccccc2c1/C=N/Nc1nc2ccccc2[nH]1	19
COc1cc([N+](=O)[O-])cc(/C=N/NC(=O)c2ccc(NC(=O)c3ccc(C)cc3)cc2)c1O	13
O=C(O)CSCC(=O)Nc1ccc(-c2nc3ccccc3s2)cc1	18
CC/C(=N\NC(N)=O)c1ccc(OC(F)F)cc1	24
CCn1ccnc1CN(C)Cc1cn(C)nc1-c1ccccc1F	15
COc1cccc(C2CN(c3ccc(F)cc3F)N=C2c2cccs2)c1OC (stereo unspecified)	-3
CC(=O)Nc1cccc(NC(=O)C(=O)c2cn(CC(=O)N3CCCCC3)c3ccccc23)c1	14
O=C(N/N=C/c1cn(-c2ccccc2)nc1-c1cccs1)c1ccccc1F	17
N/C(=N\S(=O)(=O)c1cc(C(F)(F)F)cc(C(F)(F)F)c1)c1ccccc1	21
CCc1ccc(N(C(=O)Cn2nnc(-c3ccccc3)n2)C(C(=O)NC2CCCCC2)c2ccccn2)cc1 (stereo unspecified)	8
CCOC(=O)N1CCN(C(=O)CN(c2ccccc2)S(C)(=O)=O)CC1	-11
Cc1ccc(NC(=O)CCl)cc1S(=O)(=O)N1CCCCCC1	10
COc1cccc(/C=N/NC(=O)CNC(=O)c2ccco2)c1O	17
O=C(CSc1ccc(-c2ccc(F)cc2)nn1)N1CCCc2ccccc21	10
CCN1C(=O)/C(=C\c2cn(-c3ccccc3)nc2-c2cccnc2)SC1=S	23
CCOC(=O)C1CCN(S(=O)(=O)c2ccc(C(C)=O)cc2)CC1	8

Filtered by structure, those above containing a furan ring, fused or not (3)
SMILES	Biofilm kill mix
COc1ccc(NC(=O)c2ccc(Cc3ccc(C)cc3)o2)cc1	6
CC1CC1c1ccc(/C=C(\C#N)C(=O)Nc2ccc(Cl)cc2)o1 (stereo unspecified)	11
COc1cccc(/C=N/NC(=O)CNC(=O)c2ccco2)c1O	17

(next part)
SMILES	Biofilm kill mix
O=C(CSc1nnc(-c2ccc3c(c2)OCO3)n1-c1ccccc1)c1ccc(Cl)cc1	10
CCc1nc2ccccc2nc1N1CCN(S(=O)(=O)c2c(C)cc(Cl)cc2C)CC1	24
N#Cc1c(NC(=O)C2CC=CCC2C(=O)O)sc2c1CCCCCC2 (stereo unspecified)	9
CC(=O)N1C(C)(C)CC(=NOS(=O)(=O)c2ccccc2)CC1(C)C	20
COc1ccc(CC(=O)N2N=C(C)CC2(O)C(F)(F)F)cc1OC (stereo unspecified)	11
CCCn1nnc(NC(=O)COc2ccc(CC)cc2)n1	6
Nc1nonc1N/N=C\c1ccccc1	20
CCCCN(c1ccc(C(=O)OC)cc1)S(=O)(=O)c1ccccc1	2
COc1cccc(OC)c1C(=O)Nc1nc(COc2ccccc2)cs1	15
COc1ccc(-c2nnn(CC(=O)N(CCN3CCOCC3)C(C(=O)NC3CCCCC3)c3ccco3)n2)cc1 (stereo unspecified)	11
CCOC(=O)Cc1csc(SCC(=O)NC(C)C23CC4CC(CC(C4)C2)C3)n1 (stereo unspecified)	9
COC(=O)c1ccc(NC(=O)CCN2CCN(CCC(=O)Nc3ccc(C(=O)OC)cc3)CC2)cc1	12
O=[N+]([O-])c1ccc(S(=O)(=O)N(CCCN2CCOCC2)Cc2cccs2)cc1	29
COC(=O)C1=CN(C2CC2)C=C(C(=O)OC)C1c1ccc(C(F)(F)F)cc1	14
Cc1ccc(C(=O)c2cc([N+](=O)[O-])ccc2N2CCOCC2)cc1	16
Cc1ccc(NC(=O)CSc2nc(N)cc(N)n2)cc1S(=O)(=O)N1CCOCC1	11
CC(=O)Nc1cccc(C(=O)/C=C/c2ccc(C)cc2)c1	14
Brc1ccc(/C=N/Nc2ccccn2)cc1	9
CCN(CC)c1ccc(C(=O)NC(=S)N2CCN(Cc3ccc4c(c3)OCO4)CC2)cc1	21
O=c1c2cc3c(=O)n(-c4ccccc4O)c(=O)c3cc2c(=O)n1-c1ccccc1O	19
CCC(=O)Oc1ccc2oc(=O)cc(C)c2c1	8
COc1ccc(C(=O)NC(=S)Nc2nnn(C)n2)cc1	10
Cc1ccc(-n2cc(CN3CCN(c4ccccn4)CC3)c(-c3ccc(F)cc3)n2)cc1	15
C/C(=N\Nc1cc(C(F)(F)F)ccc1Cl)c1ccccc1O	5
CC1CC(C)CN(S(=O)(=O)c2ccc3c(c2)n(C)c(=O)c(=O)n3C)C1 (stereo unspecified)	12

Other records
SMILES	Biofilm kill mix
Fc1cccc(Cl)c1CNn1cn[nH]c1=S	10
COc1ccc(-c2[nH]c3ccccc3c2SCCNC(=O)c2ccccc2)cc1	13
CN(C)C(=O)CN1CCN(C(=O)CCl)CC1	18
Cc1ccccc1Cn1c(=O)sc2ccccc2c1=O	4
CC(=O)C1=C(C)NC(C)=C(C(C)=O)C1c1ccccc1	3
Cc1cc(OCC(O)CN2C(C)CCCC2C)ccc1C(C)C (stereo unspecified)	2
COc1ccc2c(=O)c(-c3ccc4c(c3)OCO4)coc2c1	9
CCC1CCCCN1C(=O)CCc1nnc(C2CCCCC2)o1 (stereo unspecified)	0
O=S(=O)(NCc1cccs1)NCc1ccccc1F	14
OCCN(CCO)c1nc2ccccc2[nH]1	1
NC(=O)c1ccc(NC(=O)COC(=O)CCc2ccc(S(=O)(=O)N3CCCCC3)cc2)cc1	11
CN(Cc1ccccc1)C(=S)Nc1ccc(OC(F)F)cc1	9
O=C(CN1CCN(C(=O)c2ccco2)CC1)Nc1ccc(Cl)c(S(=O)(=O)N2CCOCC2)c1	3
COc1ccc(C2c3[nH]c4ccccc4c3CCN2CCCn2cccn2)cc1C (stereo unspecified)	5
CC(C(=O)Nc1ccccc1)N(C)CCOc1ccc(Br)cc1 (stereo unspecified)	6
CCN(Cc1ccccc1)C(=O)c1ccc(SC)cc1OC	5
Cc1ccc(C(=O)NCc2n[nH]c(=S)n2-c2ccccc2)cc1[N+](=O)[O-]	5
COC(=O)Nc1ccc(S(=O)(=O)Nc2cnc3ccccc3n2)cc1	10
COc1cc(/C=N/n2c(-c3ccccc3)n[nH]c2=S)cc(OC)c1OC	5
CN(C)C(=O)NC1C=CS(=O)(=O)C1 (stereo unspecified)	10
CCOC(=O)c1c(NC(=O)CNC2CCCCC2)sc(C)c1C	9
NC(=S)N=Nc1c(O)[nH]c2ccc(F)cc12	19
CSc1nc2c(c(=O)[nH]1)C(c1ccc(Cl)cc1)CC(=O)N2 (stereo unspecified)	14
COc1ccc(NC(=O)C2(c3cccs3)CCOCC2)cc1	2
COc1ccc(OC)c(NC(=O)COC(=O)CSc2ccc(Cl)cc2)c1	4

The list continues:
SMILES	Biofilm kill mix
CCOCC(=O)Nc1ccc([N+](=O)[O-])cc1OC	26
O=C(CO/N=C/c1ccc(Cl)cc1Cl)NNC(=O)c1ccc(Cl)cc1Cl	19
Cc1ccccc1-c1nnn(CC(=O)Nc2ccc3c(c2)OCO3)n1	5
CC1CCN(C(=O)c2ccc(N3C(=O)C4CCC(C)CC4C3=O)cc2)CC1 (stereo unspecified)	9
O=C(O)c1ccc(CNC(=O)c2ccc(C(F)(F)F)cc2)cc1	15
Cc1onc(-c2ccccc2Cl)c1C(=O)OCC(=O)c1c(N)n(C)c(=O)n(C)c1=O	4
Cc1ccc(OCC(=O)Nc2nnc(-c3ccco3)s2)cc1	20
O=C(CCc1nc2ccccc2c(=O)[nH]1)OCc1ccc(Cl)cc1Cl	5
CN(Cc1ccc(Cl)cc1)C(=O)CCl	12
Cc1nnc(N/N=C/c2cccs2)[nH]c1=O	15
NC(=O)COn1c(SCC(N)=O)nc2ccccc2c1=O	18
O=C1c2ccccc2-c2nnc(-c3ccc(O)cc3)cc21	7
COc1ccc(C(CCNCc2ccc(OC)c(OC)c2)c2ccc(F)cc2)cc1 (stereo unspecified)	30
COc1ccc(CN2C(=O)c3ccccc3C2C(=O)NC2CCCC(C)C2C)c(OC)c1 (stereo unspecified)	34
O=c1[nH]c(CN2CCN(S(=O)(=O)/C=C/c3ccccc3)CC2)nc2ccccc12	7
Cc1oc2ccc(OS(C)(=O)=O)cc2c1C(=O)OC(C)C	20
CCn1c(SCC(=O)N2CCCc3ccccc32)nnc1-c1ccoc1C	11
NC1=NC(=Nc2cccc(S(=O)(=O)N3CCOCC3)c2)c2ccccc21	7
N/C(=N\OC(=O)/C=C/c1ccccc1)c1ccncc1	10
OC(COC(c1ccccc1)c1ccccc1)CN1CCOCC1 (stereo unspecified)	19
COc1ccc(C2c3c(C)nn(-c4ccccc4)c3NC(=O)N2c2ccccc2)cc1 (stereo unspecified)	12
S=C(NC1CCCCC1)N1CCCCC1	4
CCCCOC(=O)c1ccc(NC(=O)C(=O)NCc2ccco2)cc1	-2
CN(/C=C1/C(=O)CNC1=O)CCO	2
Cc1cc(N2CCCCC2)nc(-c2ccc(Br)cc2)n1	4

Single values from the list:
Entry for O=C(CO/N=C/c1ccc(Cl)cc1Cl)NNC(=O)c1ccc(Cl)cc1Cl in Biofilm kill mix: 19
Entry for CCOCC(=O)Nc1ccc([N+](=O)[O-])cc1OC in Biofilm kill mix: 26
Entry for CCn1c(SCC(=O)N2CCCc3ccccc32)nnc1-c1ccoc1C in Biofilm kill mix: 11

Further results follow.
SMILES	Biofilm kill mix
COc1ccc(CCNS(=O)(=O)c2cnc(Cl)c(Br)c2)cc1OC	20
CCOC(=O)c1cc(-c2csc(-c3cccc(Cl)c3)n2)on1	-2
CCOc1ccc(NC(=O)CC2C(=O)N(C)C(=S)N2Cc2ccco2)cc1 (stereo unspecified)	13
COc1ccc(/C=N/NC(=O)Cn2c(Cc3ccc(OC)c(OC)c3)nc3ccccc32)cc1	6
O=C(CSCc1ccc(F)cc1)Nc1ccccc1C(=O)N1CCOCC1	10
Cc1ccc(/C=C/C(=O)Nc2ccc(S(N)(=O)=O)cc2)o1	26
O=C(Cc1c[nH]c2ccccc12)Nc1nnc(C2CC2)s1	5
CCOC(=O)CNC(=S)NN(C)C	19
COc1ccc(CCNC(=O)CSc2nc(C)nc3sccc23)cc1OC	17
CCC1CCCCN1C(=O)COc1ccc(F)cc1 (stereo unspecified)	16
COc1cc(-c2[nH]nc3c2C(c2ccoc2)C(C#N)=C(N)O3)cc(OC)c1OC (stereo unspecified)	6
COc1ccc(/C=C/C(=O)OCc2cccc([N+](=O)[O-])c2)cc1	17
O=C(NCC1CCCO1)c1cc(S(=O)(=O)N2CCCC2)c(Cl)cc1Cl (stereo unspecified)	5
CCOCCCNC(=O)c1c[nH]c2ccc(C)cc2c1=O	7
CC(=O)Nc1cccc(C(=O)O)n1	19
CC1CCN(CC(=O)Nc2ccc(N3CCCCCC3)cc2)CC1	6
O=C(CCn1c(=O)sc2ccccc21)Nc1ccon1	13
O=C(COc1ccccc1[N+](=O)[O-])N/N=C/c1cccs1	17
CC(C)c1nnc(NC(=O)C2CCN(S(=O)(=O)c3ccc(-n4cnnn4)cc3)CC2)s1	9
Brc1ccc(-c2csc(N3CCOCC3)n2)cc1	18
O=c1c2ccccc2nnn1CSc1nc2ccccc2c(=O)n1CCCO	10
C=CCn1c(SCC(=O)c2c(N)n(C)c(=O)n(C)c2=O)nnc1-c1ccncc1	7
Cc1cc(S(=O)(=O)NCc2ccc(N3CCN(C)CC3)cc2)c(C)s1	5
O=C(CN1CCN(S(=O)(=O)c2ccc(Br)cc2)CC1)N/N=C/c1ccncc1	1
c1cc(Nc2ncnc3sc4c(c23)CCC4)ccn1	16

Continued.
SMILES	Biofilm kill mix
Cc1ccccc1Nc1nc(N)nc(CSc2nc3ccccc3s2)n1	6
COc1ccc(CCNC(=O)COc2ccc(C)nc2[N+](=O)[O-])cc1OC	-2
CCOC(=O)c1c(CSc2ccccc2)n(C)c2ccc(O)c(CN3CCN(C)CC3)c12	17
Cc1noc(C)c1NC(=O)NCCN1CCN(Cc2ccccc2)CC1	23
O=C(N/N=C/c1ccco1)c1ccc(N2CCCC2=O)cc1	16
CCCCC(CCC(=O)O)(C(=O)OCC)c1csc(Nc2ccc(C)cc2)n1 (stereo unspecified)	8
Cn1cnnc1SCc1ccc(C(=O)N/N=C(\CCC(=O)O)c2ccc(C(C)(C)C)cc2)cc1	1
Cc1ccc(SCc2cn3ccccc3n2)cc1	20
O=C(CSc1nc2cc(Cl)ccc2s1)NCc1ccc2c(c1)OCO2	-4
CCn1nc(C)c(/C=N/NC(=O)Cn2nnnc2N)c1C	9
CC(C)(C)c1ccc(N=C2SCC(=O)N2Cc2cccs2)cc1	28
COc1ccc(C(=O)NC(C(=O)N2CCc3ccccc32)C(C)C)cc1 (stereo unspecified)	14

Some of the entries so far, as labelled records:
CC(C)(C)c1ccc(N=C2SCC(=O)N2Cc2cccs2)cc1
- Biofilm kill mix: 28

COc1ccc(C(=O)NC(C(=O)N2CCc3ccccc32)C(C)C)cc1 (stereo unspecified)
- Biofilm kill mix: 14

Part of the list above in order of molar mass, smallest number first.
SMILES	Biofilm kill mix
CCn1nc(C)c(/C=N/NC(=O)Cn2nnnc2N)c1C	9
COc1ccc(CCNC(=O)COc2ccc(C)nc2[N+](=O)[O-])cc1OC	-2
CCOC(=O)c1c(CSc2ccccc2)n(C)c2ccc(O)c(CN3CCN(C)CC3)c12	17
